Bioassay records as filed in PubChem BioAssay.
A1 inh – inhibitors of A1; MEF A1-2A-BIM cells, caspase-Glo luminescence, 3 h; percent of clofoctol signal, DMSO as zero; caspase activation, % (test concentration not listed); AID 2241; 0.51% of 21,000 active;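 active means most replicate scores above 10, or exactly half above 10 with mean activity above 10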;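 further: effector caspase 3 and 7 activity cleaving a DEVD luciferin substrate; 50 nL library stock added to about 30 µL; numbers are from one replicate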
BJeLR viability – lowers viability of BJeLR cells; 0.64% of 30,000 active; BJeLR fibroblasts viability, CellTiterGlo ATP luminescence, 48 h; HRASV12, hTERT and SV40 LT/ST transformed; viability loss activity score, % (test concentration not listed); in the data active means viability loss activity score above about 50%; about a fifth of its hits are not listed in these tables;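 further: higher score means fewer live cells and less ATP luminescence; stock transfer was 50 or 100 nL into about 30 µL; 0% = vehicle wells and 100% = a reference killing control; one replicate is shown; the record names a cut of 85%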
An asterisk follows results filed as active; x = no result given.

SMILES,A1 inh,BJeLR viability
O=C(c1ccc(C(=O)N2CCCCC2)cc1)N1CCCCC1,0.1,-8.1
C[C@H](CO)N1C[C@H](C)[C@@H](CN(C)Cc2ccc(Cl)c(Cl)c2)Oc2ccc(NS(C)(=O)=O)cc2C1=O,-0.7,1.0
C[C@H](CO)N1C[C@H](C)[C@@H](CN(C)S(C)(=O)=O)Oc2ccc(NS(=O)(=O)c3ccc(Cl)cc3)cc2C1=O,-1.1,-3.5
Cc1ccc(NC(=O)c2ccc(-n3nc(C(F)(F)F)c4c3-c3ccoc3CC4)cc2)cc1,-1.0,0.7
CCc1ccc(NS(=O)(=O)c2ccc3c(c2)SCC(=O)N3)cc1,1.3,-4.2
O=S1(=O)C=C2C(C1)SC(=S)N2C1CCS(=O)(=O)C1 (stereo not given),0.7,-3.6
C[C@H](CO)N1C[C@H](C)[C@@H](CN(C)S(=O)(=O)c2ccc(Cl)cc2)Oc2ccc(NC(=O)CCCN(C)C)cc2C1=O,-0.1,-5.0
O=C(c1ccccc1)C(Sc1ncn[nH]1)c1ccccc1 (stereo not given),x,4.0
COc1ccc(NC(=O)N(C)C[C@H]2Oc3ccc(NS(C)(=O)=O)cc3C(=O)N([C@H](C)CO)C[C@H]2C)cc1,0.2,3.6
Cc1nccc(-c2cccc(NS(=O)(=O)c3ccccc3C(F)(F)F)c2)n1,-0.5,8.1
C[C@@H]1CN([C@H](C)CO)C(=O)c2cccc(NC(=O)C3CCOCC3)c2O[C@H]1CN(C)S(C)(=O)=O,x,2.2
Cc1ccc(S(=O)(=O)Nc2cccc3c2O[C@H](CN(C)S(=O)(=O)c2ccc(C)cc2)[C@H](C)CN([C@H](C)CO)C3=O)cc1,x,-1.1
O=C(CSc1ncccn1)Nc1nccs1,0.7,-4.0
C[C@@H]1CN([C@H](C)CO)C(=O)c2cc(NS(=O)(=O)c3cn(C)cn3)ccc2O[C@@H]1CN(C)Cc1ccc(Oc2ccccc2)cc1,0.9,-3.9
CCOC(=O)c1ccc(-c2coc3cc(OC(C)=O)c(CC)cc3c2=O)o1,-3.2,0.8
Cc1noc(C)c1S(=O)(=O)Nc1ccc2c(c1)C(=O)N([C@@H](C)CO)C[C@@H](C)[C@@H](CN(C)Cc1ccc(Oc3ccccc3)cc1)O2,-0.2,-1.5

Fetched by compound from the entries so far:
SMILES,A1 inh,BJeLR viability
Cc1nccc(-c2cccc(NS(=O)(=O)c3ccccc3C(F)(F)F)c2)n1,-0.5,8.1
Cc1noc(C)c1S(=O)(=O)Nc1ccc2c(c1)C(=O)N([C@@H](C)CO)C[C@@H](C)[C@@H](CN(C)Cc1ccc(Oc3ccccc3)cc1)O2,-0.2,-1.5

(further entries)
SMILES,A1 inh,BJeLR viability
COc1c(O)c2c(=O)cc(OC)c3c4c(OC)cc(=O)c5c(O)c(OC)c(C[C@@H](C)OC(=O)c6ccccc6)c(c(c1C[C@@H](C)OC(=O)Oc1ccc(O)cc1)c23)c54,-0.6,-6.8
O=C(NC(=S)Nc1nc(-c2ccc(Cl)cc2)cs1)C1CC1,0.1,-4.1
CC(C)(C)c1ccc(CSCc2nc3ccccc3[nH]2)cc1,-0.6,6.6
Cc1ccc(S(=O)(=O)Nc2ccc3c(c2)C(=O)N([C@H](C)CO)C[C@H](C)[C@@H](CN(C)C(=O)Nc2ccc4c(c2)OCO4)O3)cc1,-0.3,3.0
C[C@H]1CN([C@@H](C)CO)C(=O)c2cc(NC(=O)Nc3ccccc3)ccc2O[C@@H]1CN(C)C(=O)Nc1cccc2ccccc12,0.6,1.7
CNC(=O)Cn1cc2c(n1)-c1c(oc(C(=O)N3CCCC3)c1C)CC2,-0.3,-2.4
C=C1C(=O)O[C@@H]2C3=C(C)CC[C@]34O[C@@H](C[C@@H]4C)[C@H]12,-1.0,-4.1
COc1ccc(/C=C/C(=O)NC(C)(C)C)cc1,-0.3,-0.7
Cc1cc(C(=O)Nc2cccc3c2O[C@@H](CN(C)S(=O)(=O)c2ccccc2)[C@H](C)CN([C@H](C)CO)C3=O)n(C)n1,x,9.8
CCOC(=O)N1CCC(NC(=O)c2nn(C)c3c2CS(=O)(=O)c2ccccc2-3)CC1,2.0,2.3
CC(C)(C)NC(=O)CCCN1C(=O)/C(=C/c2ccccc2)SC1=S,-1.9,-6.0
CSc1scc2c1C(=O)CC(C)(C)C2,0.8,-0.9
CC(C)NC(=O)Nc1ccc2c(c1)C(=O)N([C@@H](C)CO)C[C@@H](C)[C@@H](CN(C)Cc1ccncc1)O2,0.4,-3.8
C[C@@H]1CN([C@@H](C)CO)C(=O)c2cc(NC(=O)Nc3ccccc3)ccc2O[C@@H]1CN(C)Cc1ccncc1,-0.4,0.8
C[C@@H]1CN([C@H](C)CO)C(=O)c2cc(NC(=O)Nc3ccc4c(c3)OCO4)ccc2O[C@H]1CN(C)Cc1ccc(-c2ccccc2)cc1,-0.6,2.3
CC(C)c1ccc(OCc2ccc(C(=O)NCc3ccco3)cc2)cc1,x,7.0
C[C@H]1CN([C@@H](C)CO)C(=O)c2cccc(NC(=O)NC3CCCCC3)c2O[C@@H]1CN(C)S(=O)(=O)c1ccc(Cl)cc1,x,-4.3
COc1ccc(C(=O)NCCc2sc(-c3cccc(C)c3)nc2C)cc1,-0.4,-1.3
CCc1ccc(NC(=O)c2ccc3c(c2)OCO3)cc1,-8.1,11
Oc1ccccc1C1=NNC(O)(C(F)(F)F)C1 (stereo not given),-0.2,-5.5
Cc1ccc(-c2nn3c(=O)c4ccccc4nc3c3ccccc23)cc1,-0.2,-5.9
CCc1nn(CC(=O)OC)c(=O)c2cc3sc(C)cc3n12,0.1,-2.9
COc1ccc(C(C(=O)Nc2ccc(C(C)C)cc2)N(Cc2ccco2)C(=O)c2cnccn2)cc1 (stereo not given),x,-11
C[C@@H]1CN([C@H](C)CO)C(=O)c2cccc(NS(C)(=O)=O)c2O[C@@H]1CN(C)Cc1ccc(Cl)c(Cl)c1,x,0.0
COc1cccc(NC(=O)CSC2=Nc3ccccc3C3=NC(C(C)C)C(=O)N23)c1 (stereo not given),0.9,-2.5
C[C@@H]1CN([C@@H](C)CO)C(=O)c2cc(NS(=O)(=O)c3cccs3)ccc2O[C@@H]1CN(C)C(=O)NC1CCCCC1,0.2,-2.8
CN1CCN(CCNC(=O)c2cnn(-c3ccccc3)c2-n2cccc2)CC1,0.8,-12
C[C@H](CO)N1C[C@H](C)[C@H](CN(C)CC2CC2)Oc2c(NC(=O)NC3CCCCC3)cccc2C1=O,x,0.7
Cc1noc(C)c1NC(=O)N(C)C[C@@H]1Oc2ccc(NC(=O)CCN3CCOCC3)cc2C(=O)N([C@H](C)CO)C[C@H]1C,0.0,3.2
C[C@@H]1O[C@@H](O[C@H]2[C@H](Oc3cc(O)c4c(c3)O[C@H](c3ccc(O)c(O)c3)CC4=O)O[C@H](CO)[C@@H](O)[C@@H]2O)[C@H](O)[C@H](O)[C@H]1O,-0.5,-0.9
CC(C)(C)c1cc2nc(N)nc(N)n2n1,-0.9,3.5
CSC(=NCc1sccc1COc1ccc(Cl)cc1)NC#N,-0.2,18

A different layout for two compounds above:
SMILES: C[C@@H]1CN([C@@H](C)CO)C(=O)c2cc(NS(=O)(=O)c3cccs3)ccc2O[C@@H]1CN(C)C(=O)NC1CCCCC1
  A1 inh = 0.2	BJeLR viability = -2.8

SMILES: C[C@@H]1O[C@@H](O[C@H]2[C@H](Oc3cc(O)c4c(c3)O[C@H](c3ccc(O)c(O)c3)CC4=O)O[C@H](CO)[C@@H](O)[C@@H]2O)[C@H](O)[C@H](O)[C@H]1O
  A1 inh = -0.5	BJeLR viability = -0.9

New compounds follow
Every second line gives: A1 inh, BJeLR viability
- CC(C)NC(=O)N(C)C[C@@H]1Oc2ccc(NC(=O)Nc3ccc(F)cc3)cc2C(=O)N([C@@H](C)CO)C[C@@H]1C
    0.1, -1.4
- C[C@H]1CN([C@@H](C)CO)C(=O)c2cc(NS(=O)(=O)c3ccc(F)cc3)ccc2O[C@H]1CN(C)S(=O)(=O)c1cccs1
    -0.1, 0.5
- COc1ccc(/C=C/C(=O)Nc2c3c(nc4c2CCC4)CCCC3)cc1OC
    0.1, -3.0
- COc1cc(=O)oc([C@@]2(C)O[C@H]2/C(C)=C\C(C)=C\[C@@]2(C)O[C@@H](C)[C@]3(C)OC23)c1C (stereo not given in full)
    -1.9, -2.6
- COc1ccc(NC(=O)Nc2ccc3c(c2)C(=O)N([C@@H](C)CO)C[C@H](C)[C@H](CN(C)S(=O)(=O)c2cccs2)O3)cc1
    0.7, 6.4
- Cc1cccc(-c2nnc3sc(NC(=O)CC(C)C)nn23)c1
    0.7, 0.5
- C[C@H](CO)N1C[C@H](C)[C@H](CN(C)C)Oc2ccc(NC(=O)Nc3ccc4c(c3)OCO4)cc2C1=O
    -0.3, -5.3
- C[C@@H]1CN([C@@H](C)CO)C(=O)c2cc(NC(=O)Nc3cccc4ccccc34)ccc2O[C@@H]1CN(C)S(=O)(=O)c1ccccc1
    1.4, 1.9
- COCCN1C(=O)c2ccccc2C(C(=O)NCCCN2CCC(C)CC2)C1c1ccc(F)cc1 (stereo not given)
    x, 2.1
- Cc1cc2cc(CNS(=O)(=O)c3ccccc3)ccc2n1C
    x, 0.6
- COc1ccc(NC(=O)N(C)C[C@H]2Oc3ccc(NS(=O)(=O)c4cccs4)cc3C(=O)N([C@@H](C)CO)C[C@@H]2C)cc1
    0.8, -0.5
- CC(=O)O[C@@H]1c2c(ccc3ccc(=O)oc23)O[C@@H]1C(C)(C)OC(=O)C=C(C)C
    -1.7, 18
- COc1ccc(NC(=O)Nc2cccc3c2O[C@@H](CN(C)C(=O)Nc2ccccc2)[C@H](C)CN([C@H](C)CO)C3=O)cc1
    x, -7.8
- CC(C)NC(=O)Nc1cccc2c1O[C@@H](CN(C)C)[C@@H](C)CN([C@H](C)CO)C2=O
    x, 0.3
- C[C@H]1CN([C@@H](C)CO)C(=O)c2cc(NS(=O)(=O)c3ccccc3)ccc2O[C@@H]1CN(C)S(=O)(=O)c1ccccc1
    0.6, -0.3
- CCOC(=O)c1c(N(C)C)ccc(C2C=CNC(=O)N2)c1C (stereo not given)
    0.2, -3.4
- C[C@H]1CN([C@@H](C)CO)C(=O)c2cc(NS(=O)(=O)c3ccc(F)cc3)ccc2O[C@@H]1CN(C)C(=O)Nc1ccccc1
    0.2, 1.1
- O=C(COc1ccccc1)Nc1ccc(S(=O)(=O)Nc2ncccn2)cc1
    0.3, -4.4
- O=C(CN1C(=O)c2ccccc2C1=O)c1ccc(C(F)(F)F)cc1
    -0.7, -2.4
- Cc1ccc2[nH]c(=O)c3cc(C(=O)NC(C)C)sc3c2c1
    x, -2.7

Record cards, as listed above.
Results for C[C@H]1CN([C@@H](C)CO)C(=O)c2cccc(NC(=O)NC3CCCCC3)c2O[C@@H]1CN(C)S(=O)(=O)c1ccc(Cl)cc1 → A1 inh = x; BJeLR viability = -4.3
Results for Cc1ccc(-c2nn3c(=O)c4ccccc4nc3c3ccccc23)cc1 → A1 inh = -0.2; BJeLR viability = -5.9

(cont.)
Every second line gives: A1 inh, BJeLR viability
- CC(C)NCC(O)COc1ccccc1-n1cccc1 (stereo not given)
    -0.4, 6.5
- CN(C)C1=NC(C(F)(F)F)(C(F)(F)F)N=C(c2ccccc2)O1
    0.5, -1.1
- COc1cccc(Oc2c(C(F)(F)F)oc3cc(OC)ccc3c2=O)c1
    x, -1.5
- O=C(Oc1c(CN2CCOCC2)cc(Cl)c2cccnc12)c1ccccc1Cl
    1.0, 30
- Cc1ccc2nc(N3CC(=O)N(CCc4ccccc4)C(=O)C3)c3nncn3c2c1
    x, -1.3
- O=C(NCc1cccs1)c1cc(-c2cccs2)on1
    x, -1.6
- CNC[C@@H]1Oc2c(NC(=O)c3ccncc3)cccc2C(=O)N([C@@H](C)CO)C[C@H]1C
    x, -4.1
- Cc1ccc(C(=O)CC(C(=O)O)n2cccn2)cc1 (stereo not given)
    -3.3, 4.3
- Cc1ccoc1CC[N+](C)(C)C
    0.5, 0.5
- COc1ccccc1C(CCNCc1ccccc1)c1ccco1 (stereo not given)
    x, 7.3
- C=C(C(=O)O)[C@@H]1CC[C@@]2(C)CCC=C(C)[C@@H]2C1
    -0.3, -3.6
- C[C@H](CO)N1C[C@H](C)[C@@H](CN(C)Cc2ccc(Cl)c(Cl)c2)Oc2ccc(NC(=O)Nc3ccc4c(c3)OCO4)cc2C1=O
    1.3, -3.3
- COC(=O)c1c(C)oc2ccc(OCC#N)cc12
    0.7, 1.7
- Cc1nnc(Nc2cccc(Cl)c2C)s1
    1.0, -1.8
- O=C(CN1CC(=O)Oc2ccccc21)OCC(=O)c1ccccc1
    0.1, -0.6
- O=C(Cc1ccc(Oc2ccccc2)cc1)c1ccccc1
    -0.1, 3.4
- COc1ccc(CN(C)C[C@H]2Oc3c(NC(=O)Nc4ccc(F)cc4)cccc3C(=O)N([C@@H](C)CO)C[C@@H]2C)cc1
    x, -2.8
- COC(=O)c1cc2c(-c3cccs3)nn(-c3ccccc3)c2n1Cc1cccc(C)c1
    -0.5, -2.2
- Cc1ccc(C(=O)OC(c2ccccc2)c2nccc3ccccc23)cc1 (stereo not given)
    0.6, -2.1
- CC1=C(c2ccc(C)cc2)S(=O)(=O)NC1=NC(C)C12CC3CC(CC(C3)C1)C2 (stereo not given)
    -0.3, -3.6
- Cc1noc(C)c1S(=O)(=O)Nc1ccc2c(c1)C(=O)N([C@@H](C)CO)C[C@@H](C)[C@@H](CN(C)S(=O)(=O)c1ccccc1)O2
    0.0, 3.5
- Nc1nc(NCc2c(F)cccc2Cl)nn1-c1ccccc1
    x, 1.2
- COc1ccccc1N=C(NO)C(=Nc1ccccc1OC)NO
    1.3, -0.9
- O=c1c(O)c(-c2ccc(O)cc2)oc2cc(O)cc(O)c12
    -2.2, -0.4
- N#CC1=C(N)N(c2ccc(S(N)(=O)=O)cc2)C2=C(CCC2)C1(C(F)(F)F)C(F)(F)F
    1.4, 3.2

Not all compounds are listed. The share of hits here may be higher or lower than overall.
